gsp antag = antagonizes gsp, the McCune-Albright syndrome mutation. gsp-mutant cells, cAMP HTRF, 30 min; control for the full effect not named in the record. Potency, µM (titrated, usually from 76.9 µM), without a hit: at the top dose activity change, negative = inhibition, hits mostly inhibitors. 340,000 compounds, 0.4% hits; active = falling curve of any shape with a large fitted effect; inconclusive = falling curve, mostly with a smaller effect; inactive = flat or rising curve; cell line not stated here;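 note: intracellular cAMP measured with PDE inhibitor Ro 20-1724 present during compound exposure; potency is the fitted concentration of half-maximal effect; % is set by controls: 0 for no effect and ±100 for the full control effect; nearly all actives have a fitted effect of over 65% in size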
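HTRF cAMP measurement after 30 min RT detection following 30 min, 37C compound treatment alongside […] (added as 300 uM solution) in G418-selected cells seeded at 2000/well and grown 16–24 h.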
gsp agonist = agonists of gsp mutant (McCune-Albright syndrome) | gsp mutant cells, cAMP HTRF, 30 min; control for the full effect not named in the record | Potency, µM (series often up to 76.9 µM), for the others: at the top dose activation (cAMP increase), most hits filed as activators | 340,000 compounds, 0.13% hits | AID 624287; active = well fitted activation curve with a large enough effect; inconclusive = small, poorly fitted or top-dose-only effect, or another doubt; inactive = no such curve, though single readings can be large or run the other way; cell line not stated here;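 note: phosphodiesterase inhibitor Ro 20-1724 added with compounds to block cAMP breakdown; potency is the fitted concentration of half-maximal effect; nearly all actives have a fitted effect of over 60% in size; about a fifth of the inactives were tested at one dose only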
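Cells stably selected in G418 were plated at 2000/well, grown 16-24 hr, then given compounds in DMSO with the PDE inhibitor […] (300 uM solution added) for 30 min at 37C; cAMP was read by HTRF.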
TRPML1 agonist = human mucolipin-1 channel agonism; Q9GZU1; activation, % (concentration not given with the values); TRPML1-expressing cells, Ca2+ dye fluorescence, FDSS; host cell line not named in the record; reference of the full effect not given here; 410,000 compounds, 0.12% hits; AID 624414; in the data active = activation above about 50%; inconclusive = about 30% to 50%; inactive = below about 30%; note: 0% is about no effect; the text of the record puts the active cut at 80%
Target sequence (Q9GZU1 whole entry, looked up): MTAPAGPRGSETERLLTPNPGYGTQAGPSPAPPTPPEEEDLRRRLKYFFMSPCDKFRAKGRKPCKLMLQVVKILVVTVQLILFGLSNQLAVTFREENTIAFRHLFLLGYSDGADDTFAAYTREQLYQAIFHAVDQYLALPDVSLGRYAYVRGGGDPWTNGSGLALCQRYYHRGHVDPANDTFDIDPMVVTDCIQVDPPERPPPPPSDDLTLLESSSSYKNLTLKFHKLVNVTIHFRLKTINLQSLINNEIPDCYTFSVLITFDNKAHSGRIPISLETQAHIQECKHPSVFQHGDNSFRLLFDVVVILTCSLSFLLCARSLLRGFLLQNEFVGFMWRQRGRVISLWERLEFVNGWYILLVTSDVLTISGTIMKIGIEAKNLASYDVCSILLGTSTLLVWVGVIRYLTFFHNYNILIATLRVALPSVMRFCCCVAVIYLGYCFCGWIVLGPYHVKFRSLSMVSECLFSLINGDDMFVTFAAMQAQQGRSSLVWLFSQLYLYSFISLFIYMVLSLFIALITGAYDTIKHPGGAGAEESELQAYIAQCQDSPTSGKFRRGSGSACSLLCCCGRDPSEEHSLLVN
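Calcium fluorescence on an FDSS kinetic reader gave the read-out. Tet-induced TRPML1-DL cells were plated overnight, dye-loaded (Ca8 with quencher, 45-90 min, room temperature, dark), then read 110 s after compound addition, and again 110 s after 4uM final 54-4 (EC80).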
ClpP mod = qHTS Assay for Activators of ClpP. ATP-dependent Clp protease proteolytic subunit (Bacillus subtilis (strain 168)), P80244. purified B. subtilis ClpP, FRET peptide cleavage, 20 min. Potency, µM (doses to about 57.5 µM), without a hit: top-dose activity change, negative = active. 340,000 compounds, 1.9% hits; active = well fitted falling curve with a large enough effect; inconclusive = small, poorly fitted or top-dose-only effect; inactive = no such curve, though single readings can be large or run the other way; note: potency is the fitted concentration of half-maximal effect; the source files actives as falling curves though it sought activators and does not explain the sign; nearly all actives have a fitted effect of over 65% in size; many hits overshoot -100%
Target sequence (P80244 whole entry, looked up): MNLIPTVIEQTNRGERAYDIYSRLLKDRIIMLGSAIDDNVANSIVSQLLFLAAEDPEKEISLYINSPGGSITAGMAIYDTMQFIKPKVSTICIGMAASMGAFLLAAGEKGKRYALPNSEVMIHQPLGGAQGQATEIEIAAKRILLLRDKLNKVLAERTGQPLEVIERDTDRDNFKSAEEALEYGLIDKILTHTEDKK
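Buffer: 100 mM Tris/HCl pH8, 100 mM KCl, 0.05% low protease BSA, 2.5% glycerol, 0.01% Tween-20. ClpP 10 microg/mL final; 20 min RT; delta FRET normalized to ADEP and DMSO controls.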
TRPML1 inh = blocks the human TRPML1 channel; TRPML1-inducible cells, Ca2+ dye fluorescence, FDSS; stronger effect = lower value; inhibition of EC80 agonist-evoked calcium signal; activity change, negative = inhibition, % (concentration not given with the values); 390,000 compounds, 0.02% hits; AID 624415; in the data active means activity change below about -50%; inconclusive means about -30% to -50%; inactive means above about -30%;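 note: stimulus is agonist 54-4 at its EC80 concentration; % is set by controls: 0 for no effect and ±100 for the full control effect; the text of the record puts the active cut at -80%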
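TRPML1-DL cells, Tet-induced overnight (~16 h, 37 °C) at 1,500 cells/well, were loaded with Ca8 no-wash dye plus quencher for 45-90 min at room temperature. Compounds were pinned during FDSS kinetic reading; agonist 54-4 at EC80 (4 uM final) then added.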
Menin MLL FP FL = inhibitors of human menin-MLL interaction, wild-type MLL peptide. 290,000 tested, under 10 active. AID 1766. FP activity change, % at 61.4 µM. Fluorescence polarization, fluorescein-MLL peptide displacement from menin; inconclusive = falling polarisation curve, or a change in total fluorescence; inactive = total fluorescence flat and polarisation flat or rising; no compound was filed as active; the % refers to the polarisation; negative = inhibition;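 note: % of control where 0% means no effect; inhibitors lower the polarisation; unlabelled MLL peptide was the positive control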
* = called active by the depositor; [ ] = another dose, or the depositor's remark.

Screening COC(=O)c1sc(S(=O)(=O)N2CCCCC2C)c(C(=O)OC)c1C (configuration not stated) returned gsp antag -10.6%, gsp agonist 11.5%, TRPML1 agonist 3.6, ClpP mod -2.8% and TRPML1 inh 25.5.
N#Cc1ccc(NC(=O)CSc2cn[nH]n2)cc1 was read as gsp antag -1.7%, gsp agonist -1.8%, TRPML1 agonist 0.5, TRPML1 inh 0.9 and Menin MLL FP FL -0.9.
`NC(=O)c1nsc(C(=O)N(c2ccccc2F)C(C(=O)NCc2ccc(F)cc2)c2ccc(O)cc2)c1N` (configuration not stated) gave gsp antag inconclusive, gsp agonist inconclusive, TRPML1 agonist 1.8, ClpP mod 4.4%, TRPML1 inh 5.7 and Menin MLL FP FL 3.8.
`O=C(Nc1nc2c(F)cc(F)cc2s1)c1ccc([N+](=O)[O-])o1` gave gsp antag -17.8%, gsp agonist -28.0%, TRPML1 agonist 0.3, ClpP mod 0.5%, TRPML1 inh 2.2 and Menin MLL FP FL 2.5.
Cc1cc(N2CCOCC2)nc2ccccc12 was read as gsp antag 5.8%, gsp agonist 0.0%, TRPML1 agonist -0.1, ClpP mod 25.1µM*, TRPML1 inh 13.2 and Menin MLL FP FL 2.7.
CCC1(C)C2(C#N)C(N)=NC(OC)(OC)C12C#N (configuration not stated) was read as gsp antag -7.5%, gsp agonist -12.9%, TRPML1 agonist -0.1, ClpP mod -2.0%, TRPML1 inh 0.9 and Menin MLL FP FL 5.1.
Cc1nsc(N)c1C(=O)O was read as gsp antag 9.4%, gsp agonist 11.5%, TRPML1 agonist 0.0, ClpP mod 0.0%, TRPML1 inh -7.6 and Menin MLL FP FL -1.2.
Screening COc1cccc(N2CCN(C(=O)c3cccn4c(=O)c5c(C)c(C)sc5nc34)CC2)c1 returned gsp antag -0.3%, gsp agonist 15.5%, TRPML1 agonist -0.5, TRPML1 inh 36.8 and Menin MLL FP FL 3.4.
For O=C(c1cccc(S(=O)(=O)N2CCc3ccccc3C2)c1)N1CCN(c2ccc(O)cc2)CC1 the results were gsp antag -16.4%, gsp agonist 2.7%, TRPML1 agonist 1.2, ClpP mod 31.6µM*, TRPML1 inh -5.3 and Menin MLL FP FL 2.2.
`O=C(c1ccccc1)N(CCO)Cc1cc2cc3c(cc2[nH]c1=O)OCCO3` gave gsp antag -1.0%, gsp agonist -0.5%[15.4 µM], TRPML1 agonist 0.5, TRPML1 inh 2.0 and Menin MLL FP FL 0.0.
CCn1cc(C(=O)NCc2ccc(C)cc2)c(=O)c2cc(S(=O)(=O)N3CCCCCC3)ccc21 was read as TRPML1 agonist 1.5, ClpP mod -2.8% and TRPML1 inh 23.3.
`COc1ccccc1CCN1CCCC(CN(C)C(=O)CCC(=O)N(C)C)C1` (configuration not stated) gave gsp antag 3.8%, gsp agonist -58.6%[inhibitor], TRPML1 agonist -0.1, TRPML1 inh -5.4 and Menin MLL FP FL -6.7.
COc1cc2c(cc1OC)C(=O)CCC2 was read as gsp antag 12.2%, gsp agonist 3.4%, TRPML1 agonist -0.1, ClpP mod 28.2µM* and TRPML1 inh 5.7.
For CCOC(=O)C1=C(CN2c3ccccc3CC2C)NC(=O)NC1c1ccccc1 (configuration not stated) the results were gsp antag 9.0%, gsp agonist -23.7%, TRPML1 agonist 2.9, ClpP mod -4.8%, TRPML1 inh -8.1 and Menin MLL FP FL 2.3.
O=C(COc1ccc(S(=O)(=O)N2CCCC2)cc1)NCCC1=CCCCC1 was read as gsp antag -3.4%, gsp agonist 8.9%, TRPML1 agonist 5.8, ClpP mod -0.7%, TRPML1 inh 4.0 and Menin MLL FP FL 2.9.
C=CCNC(=O)c1onc(CSc2cc(C)cc(C)c2)c1C(=O)O was read as gsp antag -2.1%, TRPML1 agonist 0.2, ClpP mod 0.0%, TRPML1 inh -5.4 and Menin MLL FP FL 2.6.
CCOc1ccc(N(C(=O)c2ccccc2Cl)C2=NC(C)(C)CS2)cc1 was read as gsp antag -21.7%, gsp agonist -21.4%[15.4 µM], TRPML1 agonist 2.4, TRPML1 inh -19.1 and Menin MLL FP FL 0.6.
CCNC(=S)N1CCN(c2nc(CC)nc3sc4c(c23)CCCC4)CC1 was read as gsp antag 25.1µM*, gsp agonist -1.7%[15.4 µM], TRPML1 agonist 1.4, ClpP mod 0.5%, TRPML1 inh 22.6 and Menin MLL FP FL 0.2.
For COc1ccc(/C(C)=N/NS(=O)(=O)c2cc(C)ccc2C)c(OC)c1 the results were gsp antag 5.7%, gsp agonist 5.6%[15.4 µM], TRPML1 agonist 0.8, TRPML1 inh -3.3 and Menin MLL FP FL -1.1.
Screening COc1ccnc(Oc2ccccc2)c1C#N returned gsp antag -1.3%, gsp agonist 2.2%, TRPML1 agonist 2.5, ClpP mod 0.1%, TRPML1 inh 18.5 and Menin MLL FP FL 3.2.
Screening Cn1nc(C(=O)NCc2ccc(Cl)cc2)c2c1-c1ccccc1SC2 returned TRPML1 agonist 1.2, ClpP mod 0.0% and TRPML1 inh 37.3.
`Cc1ccc(Cl)cc1NC(=O)c1ocnc1C` gave gsp antag 3.5%, gsp agonist 2.8%, TRPML1 agonist -0.2, ClpP mod -1.4%, TRPML1 inh 4.5 and Menin MLL FP FL -0.8.
`O=C(Nc1nc(-c2cccs2)cs1)c1ccc(Cl)s1` gave gsp antag inconclusive, gsp agonist -77.2%[inhibitor], TRPML1 agonist 0.9, ClpP mod -10.7%, TRPML1 inh 17.9 and Menin MLL FP FL 0.5.
Cc1ccc(N2CCN(c3c(CN4CCCC4)c(=O)oc4ccccc34)CC2)c(C)c1 was read as TRPML1 agonist -0.2, ClpP mod -1.8% and TRPML1 inh 8.0.
`CN(c1ccc(OCC(=O)OCC(=O)Nc2c(F)c(F)c(F)c(F)c2F)cc1)S(=O)(=O)c1ccc(F)cc1` gave gsp antag 1.4%, gsp agonist -45.0%[inhibitor], TRPML1 agonist 0.5, ClpP mod 1.9%, TRPML1 inh -6.7 and Menin MLL FP FL 3.7.
CN(Cc1cn(-c2ccccc2)nc1-c1ccc(F)cc1)C(=O)CCC(=O)O was read as gsp antag 7.9%, gsp agonist 2.5%, TRPML1 agonist 0.0, ClpP mod -13.0%, TRPML1 inh 38.2 and Menin MLL FP FL 0.1.
`CCOC(=O)c1sc(C)nc1C1CCN(C(=O)OCC)CC1` gave gsp antag -3.7%, gsp agonist -16.8%, TRPML1 agonist -1.1, ClpP mod -2.2%, TRPML1 inh -6.7 and Menin MLL FP FL 2.0.
Screening O=C(Nc1ccc(Cl)c(Cl)c1)N(Cc1c[nH]c2ccccc12)C1CCCCC1 returned TRPML1 agonist 0.4, ClpP mod -7.7% and TRPML1 inh 0.2.
CCCSC1=N/C(=C\c2ccc([N+](=O)[O-])o2)C(=O)S1 was read as gsp antag 4.6%, gsp agonist -8.1%[15.4 µM], TRPML1 agonist -0.6, ClpP mod 0.3%, TRPML1 inh -3.5 and Menin MLL FP FL 17.1.
`COC(=O)C1=C(C(=O)OC)[C@@H]2Nc3ccccc3[C@@]23C[C@@H](C(=O)OC)N(C(=O)C2CCC2)C3=N1` gave gsp antag inconclusive, TRPML1 agonist 3.5, ClpP mod 0.2%, TRPML1 inh -10.4 and Menin MLL FP FL -0.9[11.7 µM].
c1csc(-c2nn3c(C4COc5ccccc5O4)nnc3s2)c1 (configuration not stated) was read as gsp antag 3.7%, gsp agonist 1.7%, TRPML1 agonist 0.6, ClpP mod -5.5%, TRPML1 inh -1.9 and Menin MLL FP FL -0.6.
Screening Cc1ccc2c(c1)N(C(=O)c1ccc(F)cc1)C(C)(C)CC2(C)c1ccccc1 (configuration not stated) returned TRPML1 agonist -0.6, ClpP mod -0.5% and TRPML1 inh 21.3.
`COc1cc2c(cc1C1NC(=S)NC(C)=C1C(=O)N(C)C)CCCC2` (configuration not stated) gave gsp antag 2.0%, gsp agonist 5.8%, TRPML1 agonist 0.2, ClpP mod -10.0%, TRPML1 inh -7.6 and Menin MLL FP FL 7.1.
O=C(Cn1cnc2c(nnn2Cc2ccccc2)c1=O)c1ccccc1 was read as gsp antag 0.6%, gsp agonist -43.7%[inhibitor], TRPML1 agonist 0.8, ClpP mod 0.0%, TRPML1 inh 6.8 and Menin MLL FP FL 2.8.
`CC(=O)Nc1cc(-c2nn(C)c(=O)c3ccccc23)ccc1N1CCOCC1` gave gsp antag 11.4%, gsp agonist 5.1%[15.4 µM], TRPML1 agonist 1.4, ClpP mod 1.7%, TRPML1 inh 15.3 and Menin MLL FP FL 4.0.
Cc1cc(C)nc(N2CCN(C(=O)c3ccc(S(=O)(=O)N4CCCCCC4)cc3)CC2)n1 was read as gsp antag -2.0%, gsp agonist -10.9%[15.4 µM], TRPML1 agonist -0.1, ClpP mod 1.8%, TRPML1 inh 10.1 and Menin MLL FP FL -0.9.
`Cc1ccc2nc(-c3ccco3)c(CC(C)(C)C)n2c1` gave TRPML1 agonist 1.9, ClpP mod -24.7% and TRPML1 inh 3.4.
Screening O=C(/C=C/c1ccc(Br)cc1)NC(=S)Nc1ccc(S(=O)(=O)Nc2nccs2)cc1 returned gsp antag 8.2%, gsp agonist -2.0%, TRPML1 agonist 0.4, ClpP mod 3.1%, TRPML1 inh -14.1 and Menin MLL FP FL 2.5.
For O=C(NCc1ccc(C(F)(F)F)cc1)C1CC(c2ccccc2[N+](=O)[O-])=NO1 (configuration not stated) the results were gsp antag -1.1%, gsp agonist 28.3%, TRPML1 agonist -1.2, ClpP mod -4.5%, TRPML1 inh 13.4 and Menin MLL FP FL 3.2.
For Cc1ccc(NC(=O)c2ccc(CNS(=O)(=O)c3ccc4c(c3)C(C)(C)C(=O)N4C)cc2)cc1 the results were TRPML1 agonist 0.3, ClpP mod 2.2% and TRPML1 inh -10.1.
Screening COc1ccc(NC(=O)CN2C(=O)CCc3cc(S(=O)(=O)N4CCOCC4)ccc32)c(OC)c1 returned TRPML1 agonist -0.3, ClpP mod -0.7% and TRPML1 inh -13.4.
FC(F)(F)c1cc(CO[C@@H]2CCCN[C@@H]2c2ccccc2)cc(C(F)(F)F)c1 was read as gsp antag 8.8%, TRPML1 agonist 0.2, ClpP mod 1.4% and TRPML1 inh 12.9.
Screening COC(CNC(=O)c1ccc2c(c1)ncn2-c1ccc(F)c(F)c1)OC returned gsp antag 3.2%, gsp agonist -50.8%, TRPML1 agonist -0.1, ClpP mod -1.0%, TRPML1 inh -5.0 and Menin MLL FP FL -2.3.
`COc1ccc(CNC(=O)C2CCC(CNc3c(N4CCC(C)CC4)c(=O)c3=O)CC2)cc1` (configuration not stated) gave gsp antag -1.4%, gsp agonist 17.3%, TRPML1 agonist 2.5, ClpP mod 0.3%, TRPML1 inh 5.1 and Menin MLL FP FL 3.1.

Compounds as they come. Share with any hit: about 2.1%.
